Cruzain inh noDet: cruzain (T. cruzi) inhibition without detergent. P25779. purified cruzain, Z-FR-AMC fluorescence, no detergent. Potency, µM, without a hit: max response, negative = inhibition, hits mostly inhibitors. 200,000 tested, 2.3% active. AID 1476;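 note: plate controls were enzyme without inhibitor for no effect and buffer without enzyme for full effect; nearly all actives have a fitted effect of over 40% in size; top concentration of the series not given in the record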
Target sequence (P25779 123-467 limits assumed): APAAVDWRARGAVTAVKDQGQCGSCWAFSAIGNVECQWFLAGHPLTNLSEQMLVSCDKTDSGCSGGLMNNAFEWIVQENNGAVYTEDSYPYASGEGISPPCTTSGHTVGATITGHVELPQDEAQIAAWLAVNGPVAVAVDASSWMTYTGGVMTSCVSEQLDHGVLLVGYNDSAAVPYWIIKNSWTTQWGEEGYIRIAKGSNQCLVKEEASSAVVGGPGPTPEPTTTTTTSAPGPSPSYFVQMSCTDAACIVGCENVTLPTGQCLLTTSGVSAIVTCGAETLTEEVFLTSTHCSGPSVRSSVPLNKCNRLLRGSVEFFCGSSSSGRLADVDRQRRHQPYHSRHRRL
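Detergent-free condition (0.00005% Triton X-100) in acetate buffer pH 5.5 with DTT. 1.5 nM enzyme and compound were pre-mixed 15 min, then 2 uM Z-FR-AMC substrate added; reaction progress from fluorescence change between first and third reads (60 s).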
2A StopGo: FMDV 2A StopGo reporter, luciferase signal | human cells with a luciferase reporter of 2A StopGo recoding; control for the full effect not named in the record | Potency, µM (highest dose often 57.9 µM), without a hit: at the top dose signal change, negative = less light | 410,000 tested, 1.2% active | AID 1159524; active = well fitted falling curve with a large enough effect; inconclusive = small, poorly fitted or top-dose-only effect; inactive = no such curve, though single readings can be large or run the other way; tested in HEK293T cells; note: nearly all actives have a fitted effect of over 45% in size; luciferase light after 4 h
Cruzain Triton: blocks cruzain activity in presence of Triton detergent; P25779; purified cruzain, Z-FR-AMC fluorescence, 0.01% Triton; Potency, µM, without a hit: max response, negative = inhibition, hits mostly inhibitors; 200,000 tested, 0.43% active; AID 1478;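 note: plate controls were neutral wells for no effect and buffer without enzyme for full effect; nearly all actives have a fitted effect of over 40% in size; top concentration of the series not given in the record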
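Detergent-containing run (0.01% Triton X-100) in acetate buffer pH 5.5 with 5 mM DTT: enzyme at 1.5 nM final, 15 min compound preincubation at room temperature, then 2 uM Z-FR-AMC substrate. Activity taken as 60 s fluorescence increase at 360/450 nm.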
* = called active by the depositor; ? = inconclusive; & = joins results of further samples; [ ] = remark or other dose. Unless noted, calls come from the whole dose curve; as a rule, active = well fitted curve in the direction sought with a large enough effect; inconclusive = small, poorly fitted or top-dose-only effect, or another doubt; inactive = no such curve, though single readings can be large; an effect the other way counts as inactive or inconclusive. Unless noted, % is set by controls: 0 for no effect and ±100 for the full control effect; potency is the fitted concentration of half-maximal effect.

CS(=O)(=O)N1CCC2(CCCN(Cc3ccncc3)C2)CC1
- Cruzain inh noDet: 4%
- 2A StopGo: -8%
- Cruzain Triton: 3.4%

O=C(Nc1cccc(F)c1)N1CC[C@@]2(CCCN(C(=O)c3csnn3)C2)C1
- Cruzain inh noDet: -2%
- 2A StopGo: -14%
- Cruzain Triton: 1.7%

COc1ccc(Oc2ncc3ncc(=O)n(CCC#N)c3n2)cc1
- Cruzain inh noDet: -12%
- 2A StopGo: -6%
- Cruzain Triton: 0.7%

CN(C)c1ccc(-c2nc(NC3CCNCC3)c3ccccc3n2)cc1
- Cruzain inh noDet: -6%
- 2A StopGo: 41%[activator]
- Cruzain Triton: -10%

COc1ccccc1-c1nccc(N2CCN(C)CC2)n1
- Cruzain inh noDet: -15%
- 2A StopGo: -3%
- Cruzain Triton: 0.9%

N[C@@H](CCCCP(=O)(O)O)C(=O)O
- Cruzain inh noDet: -8%
- 2A StopGo: 3%
- Cruzain Triton: -1.2%

CN1CCN(c2ccnc(-c3cccc(NS(C)(=O)=O)c3)n2)CC1
- Cruzain inh noDet: -6%
- 2A StopGo: -1%
- Cruzain Triton: -1.7%

CC1(C)OC(=O)C=C[C@@]2(C)C1C[C@@H](O)[C@]1(C)C2CC[C@@]2(C)C(c3ccoc3)OC(=O)[C@H]3O[C@]321 (stereo not given in full)
- Cruzain inh noDet: 12%
- 2A StopGo: -18%
- Cruzain Triton: 0.3%

CN1CCN(c2ncc3nc(-c4cn(C)c5ccccc45)c(=O)n(Cc4cccs4)c3n2)CC1
- Cruzain inh noDet: 0%
- 2A StopGo: -6%
- Cruzain Triton: -2.5%

COc1ncc2nc(C)c(=O)n(C)c2n1
- Cruzain inh noDet: -1%
- 2A StopGo: -14%
- Cruzain Triton: -0.8%

CC(C)=CCCC1(C)C=Cc2c(O)c3c(c(CC=C(C)C)c2O1)OC12C(=CCCC1C(C)(C)O[C@@]2(C/C=C(\C)C(=O)O)C(=O)O)C3=O (stereo not given in full)
- Cruzain inh noDet: ?
- 2A StopGo: -1%
- Cruzain Triton: -17%

Cc1noc(C)c1C(=O)N1CCC2(CC1)CCN(C(c1ccccc1)c1ccccc1)CC2
- Cruzain inh noDet: -4%
- 2A StopGo: 1%
- Cruzain Triton: 0.4%

CN1CCN(CCc2ccc(Cl)c(Cl)c2)CC1
- Cruzain inh noDet: -1%
- 2A StopGo: -7%
- Cruzain Triton: -1.8%

CSc1cc2c(cc1C(F)(F)F)N(C(=O)Nc1cccnc1)CC2
- Cruzain inh noDet: 7.9µM*
- 2A StopGo: -6%
- Cruzain Triton: 0.7%

O=C(/C=C\c1ccc(O)c(O)c1)O[C@@H](Cc1ccc(O)c(O)c1)C(=O)O
- Cruzain inh noDet: -4%
- 2A StopGo: -19%
- Cruzain Triton: -4.6%

Profiles, quoted from the list. Order of screens: Cruzain inh noDet | 2A StopGo | Cruzain Triton
O=C(Nc1cccc(F)c1)N1CC[C@@]2(CCCN(C(=O)c3csnn3)C2)C1 is listed as -2% | -14% | 1.7%
CN1CCN(c2ncc3nc(-c4cn(C)c5ccccc45)c(=O)n(Cc4cccs4)c3n2)CC1 is listed as 0% | -6% | -2.5%
Cc1noc(C)c1C(=O)N1CCC2(CC1)CCN(C(c1ccccc1)c1ccccc1)CC2 is listed as -4% | 1% | 0.4%
CN1CCN(CCc2ccc(Cl)c(Cl)c2)CC1 is listed as -1% | -7% | -1.8%
CSc1cc2c(cc1C(F)(F)F)N(C(=O)Nc1cccnc1)CC2 is listed as 7.9µM* | -6% | 0.7%

3 of the compounds above, with bars between the fields.
smiles | Cruzain inh noDet | 2A StopGo | Cruzain Triton
CS(=O)(=O)N1CCC2(CCCN(Cc3ccncc3)C2)CC1 | 4% | -8% | 3.4%
O=C(Nc1cccc(F)c1)N1CC[C@@]2(CCCN(C(=O)c3csnn3)C2)C1 | -2% | -14% | 1.7%
CC(C)=CCCC1(C)C=Cc2c(O)c3c(c(CC=C(C)C)c2O1)OC12C(=CCCC1C(C)(C)O[C@@]2(C/C=C(\C)C(=O)O)C(=O)O)C3=O (stereo not given in full) | ? | -1% | -17%

The list continues:
COc1ccc(C(=O)N2CCC3(CC2)CCN(C(c2ccccc2)c2ccccc2)CC3)cc1
- Cruzain inh noDet: -5%
- 2A StopGo: -11%
- Cruzain Triton: -3.7%

Cc1cnc(CNc2nc(-c3ccccc3C(F)(F)F)nc3ccccc23)cn1
- Cruzain inh noDet: 6%
- 2A StopGo: -11%
- Cruzain Triton: 4.0%

CC(C)CN1CCC2(CC1)CCN(C(=O)c1csnn1)CC2
- Cruzain inh noDet: ?
- 2A StopGo: 4%
- Cruzain Triton: ?

Clc1ccccc1-c1cncnc1NCCc1cnc[nH]1
- Cruzain inh noDet: 0%
- 2A StopGo: -3%
- Cruzain Triton: 1.7%

O=S(=O)(c1ccccc1)N1CCC[C@@]2(CCN(c3cccc(-c4ccccc4)c3)C2)C1
- Cruzain inh noDet: 4µM*
- 2A StopGo: -14%
- Cruzain Triton: 0.7%

COc1cc2c(cc1O)C(Cc1ccc(O)cc1)[N+](C)(C)CC2 (stereo not given)
- Cruzain inh noDet: 4%
- 2A StopGo: 9%
- Cruzain Triton: 1.4%

CCNc1ncc2nc(-c3cccs3)c(=O)n(Cc3cccs3)c2n1
- Cruzain inh noDet: 2%
- 2A StopGo: 1%
- Cruzain Triton: 0.2%

Fc1ccc(Nc2ncncc2-c2ccoc2)cc1
- Cruzain inh noDet: 1%
- 2A StopGo: -18%
- Cruzain Triton: 2.6%

COc1ncc2nc(-c3ccc(Cl)cc3)c(=O)n(CCc3ccccc3)c2n1
- Cruzain inh noDet: 13%
- 2A StopGo: -4%
- Cruzain Triton: 1.8%

CS(=O)(=O)Nc1cccc(-c2nccc(-n3ccnc3)n2)c1
- Cruzain inh noDet: 3%
- 2A StopGo: 3%
- Cruzain Triton: 5.5%

COC(=O)CCC(C)C1CCC2C3C(O)C[C@@H]4CC(O)CC[C@@]4(C)C3CC(O)[C@]12C (stereo not given in full)
- Cruzain inh noDet: ?
- 2A StopGo: -7%
- Cruzain Triton: -0.3%

O=C(c1ccco1)N1CCC[C@@]2(CCN(c3cccc(-c4ccccc4)c3)C2)C1
- Cruzain inh noDet: 6%
- 2A StopGo: -13%
- Cruzain Triton: -1.1%

Cc1noc(C)c1C(=O)N1CCC[C@@]2(CCN(CC(C)C)C2)C1
- Cruzain inh noDet: 15%
- 2A StopGo: -1%
- Cruzain Triton: -0.6%

O=C(Nc1cccc(F)c1)N1CCCC2(CCN(C(=O)c3cnccn3)CC2)C1
- Cruzain inh noDet: 3%
- 2A StopGo: -4%
- Cruzain Triton: -3.1%

COc1ncc2nc(-c3cn(C)c4ccccc34)c(=O)n(C[C@H]3CCCO3)c2n1
- Cruzain inh noDet: 1%
- 2A StopGo: -9%
- Cruzain Triton: 2.1%

An excerpt from above with just Cruzain Triton:
canonical_smiles	Cruzain Triton
O=C(c1ccco1)N1CCC[C@@]2(CCN(c3cccc(-c4ccccc4)c3)C2)C1	-1.1%
CS(=O)(=O)N1CCC2(CCCN(Cc3ccncc3)C2)CC1	3.4%

Next section
COc1ccc(Oc2ncc3nc(-c4ccccc4)c(=O)n(Cc4cccs4)c3n2)cc1
- Cruzain inh noDet: 25µM*
- 2A StopGo: -13%
- Cruzain Triton: -1.4%

CC(C)/C(O)=C1/C(=O)OC(c2ccoc2)[C@@]2(C)C(O)C(O)[C@@]34OC5(C)OC67CC(C)(C(O)[C@@]6(O)C(O)[C@@]3(O5)C12)C(CC(=O)O)[C@@]74C (stereo not given in full)
- Cruzain inh noDet: ?
- 2A StopGo: 38%[activator]
- Cruzain Triton: -2.5%

COC(=O)N1CCC2(CC1)CCN(c1ncccn1)CC2
- Cruzain inh noDet: 13%
- 2A StopGo: -14%
- Cruzain Triton: 6.6%

O=C(c1ccc2c(c1)OCO2)N1CCCCC1
- Cruzain inh noDet: -4%
- 2A StopGo: -1%
- Cruzain Triton: 5.9%

O=C(c1ccncc1)N1CCC[C@@]2(CCN(c3ccccn3)C2)C1
- Cruzain inh noDet: 3%
- 2A StopGo: -3%
- Cruzain Triton: -2.0%

CCNc1ncc2nc(C)c(=O)n(Cc3cccs3)c2n1
- Cruzain inh noDet: -4%
- 2A StopGo: -18%
- Cruzain Triton: -3.9%

O=C(c1cc(C(F)(F)F)cc(C(F)(F)F)c1)N1CCC2(CC1)CN(c1ncccn1)C2
- Cruzain inh noDet: ?
- 2A StopGo: -7%
- Cruzain Triton: -4.3%

O=C1N[C@@H](Cc2c[nH]c3ccccc23)C(=O)N[C@H]1Cc1c[nH]c2ccccc12
- Cruzain inh noDet: -10%
- 2A StopGo: -8%
- Cruzain Triton: 0.3%

O=c1c(-c2ccc(F)cc2)nc2cnc(Nc3ccccc3)nc2n1C[C@H]1CCCO1
- Cruzain inh noDet: 5%
- 2A StopGo: -2%
- Cruzain Triton: 4.8%

COCCNc1nc(-c2ccccc2C(F)(F)F)nc2ccccc12
- Cruzain inh noDet: 2%
- 2A StopGo: -4%
- Cruzain Triton: 1.4%

O=c1ccc2cc(O[C@H]3OC(CO)C(O)C(O)C3O)c(O)cc2o1 (stereo not given in full)
- Cruzain inh noDet: ?
- 2A StopGo: -7%&0%
- Cruzain Triton: ?

CC/C=C\C/C=C\C/C=C\C/C=C\C/C=C\CCCCCC(=O)O
- Cruzain inh noDet: 1%
- 2A StopGo: 9%[6.7 µM]
- Cruzain Triton: 1.2%

NC(N)=NCCN1CCCCCCC1
- Cruzain inh noDet: 9%&-4%
- 2A StopGo: 9%
- Cruzain Triton: 3.7%&2.2%

CN(C)Cc1ccccc1-c1cncnc1Nc1ccccc1
- Cruzain inh noDet: 12%
- 2A StopGo: -1%
- Cruzain Triton: 1.0%

O=c1c(-c2cccs2)nc2cnc(N3CCNCC3)nc2n1CCc1ccccc1
- Cruzain inh noDet: 12%
- 2A StopGo: -17%
- Cruzain Triton: -1.5%

COc1ccc(-n2c(=O)c(C)nc3cnc(N4CCNCC4)nc32)cc1
- Cruzain inh noDet: 1%
- 2A StopGo: -8%
- Cruzain Triton: -1.5%

CN(C)c1ncc2nc(-c3cn(C)c4ccccc34)c(=O)n(C[C@H]3CCCO3)c2n1
- Cruzain inh noDet: 4%
- 2A StopGo: -20%
- Cruzain Triton: 1.8%

CCNc1ncc2nc(-c3ccc(F)cc3)c(=O)n(CCOC)c2n1
- Cruzain inh noDet: 2%
- 2A StopGo: -8%
- Cruzain Triton: 0.2%

COCCn1c(=O)c(-c2cc(F)cc(F)c2)nc2cnc(OC)nc21
- Cruzain inh noDet: -4%
- 2A StopGo: -19%
- Cruzain Triton: -4.0%

CC[C@]1(c2ncc[nH]2)Cc2ccccc2O1
- Cruzain inh noDet: 4%
- 2A StopGo: 0%
- Cruzain Triton: -2.3%

Cn1cccc1C(=O)N1CCC2(CC1)CCN(c1ccc(-c3ccccc3)cc1)CC2
- Cruzain inh noDet: ?
- 2A StopGo: -29%
- Cruzain Triton: -4.2%

COC(=O)CCCOc1ccc(Cl)cc1Cl
- Cruzain inh noDet: -11%
- 2A StopGo: 46%[activator]
- Cruzain Triton: -0.8%

CC(=O)Oc1ccc2c(c1C(C)C)CCC1C(C)(C)CCC[C@@]21C (stereo not given in full)
- Cruzain inh noDet: 15%
- 2A StopGo: -3%
- Cruzain Triton: 7.2%

CCCCC/C=C\C/C=C\C/C=C\C/C=C\CCCC(=O)O
- Cruzain inh noDet: ?
- 2A StopGo: ?
- Cruzain Triton: -1.1%&-15%&-22%

Fetched by compound from the entries so far, 4 records:
CCNc1ncc2nc(C)c(=O)n(Cc3cccs3)c2n1
- Cruzain inh noDet: -4%
- 2A StopGo: -18%
- Cruzain Triton: -3.9%

O=C1N[C@@H](Cc2c[nH]c3ccccc23)C(=O)N[C@H]1Cc1c[nH]c2ccccc12
- Cruzain inh noDet: -10%
- 2A StopGo: -8%
- Cruzain Triton: 0.3%

COCCNc1nc(-c2ccccc2C(F)(F)F)nc2ccccc12
- Cruzain inh noDet: 2%
- 2A StopGo: -4%
- Cruzain Triton: 1.4%

CC/C=C\C/C=C\C/C=C\C/C=C\C/C=C\CCCCCC(=O)O
- Cruzain inh noDet: 1%
- 2A StopGo: 9%[6.7 µM]
- Cruzain Triton: 1.2%

Screening results as filed in PubChem BioAssay.

Not all compounds are listed; rates above refer to the full screens.
